High-throughput results from PubChem BioAssay.
PINK1 expr mod: PINK1 expression modulation. PINK1 immunofluorescence, high-content cytometry, 24 h. Potency, µM (titrated, usually from 76.6 µM), inactives show top-dose activation (PINK1 increase), most hits filed as activators. 0.2% of 410,000 active; active = well fitted activation curve with a large enough effect; inconclusive = small, poorly fitted or top-dose-only effect; inactive = flat fitted curve, though single readings scatter; cell line not stated here;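 further: potency means the concentration at half of the fitted maximal effect; % of control where 0% means no effect; nearly all actives have a fitted effect of over 65% in size; a mitochondrial uncoupler was the plate control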
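Decision-based qHTS: stable cells, 24 h exposure to five compound concentrations, CCCP as control. Fixed cells stained for PINK1 plus nuclear, mitochondrial and cell markers, cytometer read.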
D2 PAM: positive allosteric modulators of human D2 dopamine receptor; P14416; DiscoveRx D2 beta-arrestin cells, luminescence, 90 min; 100% = 57 uM dopamine signal; potentiation, % (concentration not given with the values); 0.23% of 360,000 active; AID 624464; active = potentiation of 50% or more; inconclusive = 30% to 50%; inactive = 30% or less;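 further: compound concentration not given in the record; tested on top of an EC20 dose of dopamine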
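PathHunter beta-arrestin assay in DiscoveRx D2 cells. Compounds were added with an EC20 of dopamine (50 nM final) for 90 min at 37 deg C. Luminescence was read 1 h after detection reagent, with 57 uM dopamine as the EC100 control.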
TRPML1 ag: human mucolipin-1 channel agonism; Q9GZU1; TRPML1-expressing cells, Ca2+ dye fluorescence, FDSS; host cell line not named in the record; reference of the full effect not given here; activation, % (no concentration beside the values); 0.12% of 410,000 active; in the data active = activation above about 50%; inconclusive = about 30% to 50%; inactive = below about 30%; further: 0% is about no effect; the text of the record puts the active cut at 80%
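Agonist activity was taken from a 110 s kinetic Ca2+ dye read on the FDSS after pinning compounds onto TRPML1-DL cells. The cells were seeded at 1,500/well with Tet inducer, incubated about 16 h, then dye-loaded at room temperature.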
D2 ag: agonists of human D2 dopamine receptor (beta-arrestin) | DiscoveRx PathHunter D2 beta-arrestin, luminescence, 90 min; 100% = 57 uM dopamine signal | AID 624465 | P14416 | 0.084% of 360,000 active | activation, % (concentration not given with the values); in the data active = activation above about 40%; inconclusive = about 15% to 40%; inactive = below about 15%; further: compound concentration not given in the record; the text of the record calls up to 30% inactive
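DiscoveRx PathHunter D2 beta-arrestin cells (2,100/well) attached overnight, then compound-stimulated 90 min at 37 C in HBSS/10 mM HEPES/0.1% Tween-20 buffer; beta-galactosidase complementation read by luminescence after 1 h at ambient temperature. Dopamine 57 uM final (EC100) as control.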
CtBP-E1A inh: blocks the CtBP interaction with E1A | AlphaScreen GST-E1A/His-CtBP binding, 1536-well; active compounds read low; control for the full effect not named in the record | activity change, % (no concentration beside the values) | 0.49% of 340,000 active | AID 651724; in the data active means activity change below about -65%; inconclusive means about -30% to -65%; inactive means above about -30%; further: on the % scale 0 is the no-effect control and ±100 the full control effect
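Steps: dispense buffer (Tris pH 8.0, NaCl 300 mM, TCEP 1 mM, BSA, Tween 20); add 5X protein mix (GST-E1A, His-CtBP, 125 nM each); pin 23 nL compound; 2 h at 37 °C, dark; add 5X beads (50 ug/mL); 1 h; read.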
Six1-Eya2 inh: inhibitors of human Six1/Eya2 interaction; activity change, % (concentration not given with the values); AID 651725; AlphaScreen GST-Six1/His-Eya2 binding, biochemical; active compounds read low; control for the full effect not named in the record; 0.56% of 360,000 active; Q15475+O00167; in the data active = activity change below about -65%; inconclusive = about -30% to -65%; inactive = above about -30%; further: on the % scale 0 is the no-effect control and ±100 the full control effect
Target sequence (O00167 whole entry, looked up): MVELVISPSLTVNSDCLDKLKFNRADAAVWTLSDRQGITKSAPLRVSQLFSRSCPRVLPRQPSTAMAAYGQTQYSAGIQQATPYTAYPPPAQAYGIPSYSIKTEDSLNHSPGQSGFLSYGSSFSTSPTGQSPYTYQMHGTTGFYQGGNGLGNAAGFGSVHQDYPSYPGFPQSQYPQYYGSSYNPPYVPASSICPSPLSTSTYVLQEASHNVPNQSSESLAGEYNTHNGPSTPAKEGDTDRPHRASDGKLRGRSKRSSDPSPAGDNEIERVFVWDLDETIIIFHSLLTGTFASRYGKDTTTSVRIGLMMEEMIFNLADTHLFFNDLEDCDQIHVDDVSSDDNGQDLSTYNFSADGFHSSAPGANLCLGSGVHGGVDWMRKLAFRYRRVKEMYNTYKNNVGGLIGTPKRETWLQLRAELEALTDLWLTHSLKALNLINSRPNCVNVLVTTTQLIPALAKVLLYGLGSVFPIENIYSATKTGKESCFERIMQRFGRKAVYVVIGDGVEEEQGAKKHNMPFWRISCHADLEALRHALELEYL
Target sequence (Q15475 whole entry, looked up): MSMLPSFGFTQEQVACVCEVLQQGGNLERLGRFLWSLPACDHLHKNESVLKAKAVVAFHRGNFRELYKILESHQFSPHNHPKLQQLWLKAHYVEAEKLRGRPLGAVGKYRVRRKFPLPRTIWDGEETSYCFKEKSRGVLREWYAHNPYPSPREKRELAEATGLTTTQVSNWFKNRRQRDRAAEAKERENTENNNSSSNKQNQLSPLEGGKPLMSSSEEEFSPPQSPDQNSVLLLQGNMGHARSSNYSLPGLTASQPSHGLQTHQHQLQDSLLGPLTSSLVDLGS
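GST-Six1 + His-Eya2 (5X stock: 250/500 nM); Tris pH 8.0, 300 mM NaCl, 0.05% BSA, 0.02% Tween 20; GSH donor/Ni acceptor beads; 1 h 37 °C dark; AlphaScreen readout.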
Active calls of the source: *; u = inconclusive; x = not tested or not shown; & = joins results of further samples; [ ] = dose if it differs, or a comment. No enrichment for hits. About 1.3% of those tested had a hit in this group.

SMILES	PINK1 expr mod	D2 PAM	TRPML1 ag	D2 ag	CtBP-E1A inh	Six1-Eya2 inh
O=C(c1ccccc1F)N1CCCC(C(=O)N2CCc3ccccc3C2)C1 (stereo not drawn)	1.4%	-5.0	-0.5	-5.1	-1.0	-13.5
O=C(NCc1ccco1)c1nn2cccnc2c1Cl	1.0%	-2.7	-0.7	-3.6	2.3	8.7
COC(=O)c1ccc(C(=O)N=c2sccn2C)cc1	0.0%	-6.6	-0.6	-2.1	-5.9	11.7
COc1ccc(-c2nnn(CC(=O)N(CCCN3CCOCC3)C(C(=O)NC3CCCC3)c3ccco3)n2)cc1 (stereo not drawn)	1.4%	-8.1	0.8	-0.6	1.1	7.6
CCOc1ccc(C(=O)NCCc2cnc[nH]2)cc1OCC	0.9%	-26.0	0.6	-2.8	6.4	-5.0
COc1ccc(CN2CCN(C(=O)c3ccc(S(=O)(=O)N4CCCCCC4)cc3)CC2)cc1F	u	18.4	-0.2	0.1	-0.4	-9.7
Cc1nc(SCC(=O)NCC2CCCO2)c2oc3ccccc3c2n1 (stereo not drawn)	x	-1.2	0.2	-1.5	-9.4	-5.5
CN1CCN(C(=O)c2cccc(S(=O)(=O)N3CCCC3)c2)CC1	0.0%	-7.4	-0.6	-7.6	2.9	2.2
CCOc1ccc(OCC)c(NC(=O)CCCN2C(=O)c3cccnc3C2=O)c1	0.4%	-12.6	0.5	-0.1	-3.3	-2.0
O=C(O)c1ccc(CN(Cc2ccccc2)S(=O)(=O)c2ccc(Cl)cc2)cc1	-0.6%	-0.7	-2.0	0.1	7.0	-0.7
CCCCN1CC[C@H]2C=CC[C@@H](C(=O)Nc3nccs3)[C@H]2C1=O	0.3%	-6.1	-0.1&-0.6	-2.8	1.7	0.8
O=C(Nc1nccs1)c1ccc(Cl)cc1[N+](=O)[O-]	2.1%[38.3 µM]	5.5	-0.5	2.1	12.0	-1.9
O=C(CCC(=O)OCC(=O)c1ccc(Cl)cc1Cl)Nc1cccc2cccnc12	-1.3%	-36.9	-0.8	-10.8	3.3	4.4
CC(=O)c1cccc(CN2CCCC(N3CCN(c4ccccc4F)CC3)C2)c1 (stereo not drawn)	-0.1%	-0.8	0.2	11.7	-6.5	2.7
CCC(Sc1nc2cc3c(cc2c(=O)n1Cc1ccco1)OCO3)C(=O)Nc1cccc(OC)c1 (stereo not drawn)	1.0%	-5.1	2.4	-1.9	4.1	17.4
OC1CCN(c2c3c(nc4cc(-c5ccc(F)cc5)nn24)CCC3)CC1	2.6%	-2.8	-0.3	-2.7	-1.2	-3.1
O=C(NCc1ccc(Cl)s1)C1CCC(=O)N(CCc2ccccn2)C1 (stereo not drawn)	-1.3%	-10.7	1.1	-4.3	1.9	9.0
CCN(CC)C(=O)CSc1nnc(-c2cnccn2)n1-c1ccccc1	-1.3%	-19.3	-0.3	-3.7	3.5	-2.9
Cc1nc(N)nc(N(C)c2ccccc2)c1Br	-1.0%	-0.7	23.4	2.1	0.9	-1.4
C(=NN=Cc1c[nH]c2ccccc12)c1c[nH]c2ccccc12	u	-7.3	2.0	-5.5	-3.0	-8.3
Cc1ccc(-n2nc(C)c3c2NC2=C(C(=O)CC(C)(C)C2)C3c2ccccc2OCC(=O)O)cc1 (stereo not drawn)	0.5%	-5.9	-0.4	-1.2	11.6	0.9
C[C@H](NC(=O)C1CCN(S(=O)(=O)c2ccccc2)CC1)C(=O)NC1CC1	-0.1%	-11.0	0.3	-2.3	-24.0	12.7
COc1ccc(C)cc1N=Nc1ccc(O)c2ncccc12	7.3%	-21.9	1.0	-23.7	x	-94.9*
O=C(CSc1nnc(NC(=O)c2cccc(F)c2)s1)NCc1ccco1	0.6%	14.5	-0.5	-2.0	5.5	1.5
COCCn1nnnc1C(c1ccc(OC)cc1)N1CCN(C(=O)c2ccco2)CC1 (stereo not drawn)	3.0%	-10.8	-1.4	-6.6	0.0	4.9
COc1ccc(S(=O)(=O)N2CCOCC2)cc1NC(=O)Cc1coc2cc(C)c(C)cc12	9.0%	-2.3	-0.2	-1.9	-3.2	-4.1
COc1ccc(-c2ccc(C(=O)Nc3ccc(OC)nc3)c3occc23)c(C)c1	4.9%	-3.7	0.0	3.3	-22.5	0.8
Nn1c(COc2cccc(Cl)c2)nc2ccccc2c1=O	1.1%	-25.0	2.1	-3.4	2.1	0.6
Cc1ccc(C)c(OCC(=O)NCC(C)(C)N2CCOCC2)c1	3.4%	-3.5	0.1	0.5	-3.8	1.0
Cc1ccc(S(=O)(=O)n2cnc3ccccc32)c(C)c1	0.5%	-15.0	0.1	-3.2	16.1	10.0
COc1ccc(C2C(C#N)=C(N)Oc3c2c(C)nn3-c2ccccc2)cc1Cn1nc(C)c([N+](=O)[O-])c1C (stereo not drawn)	3.2%	-11.9	0.1	-5.0	-13.8	-11.1
COc1ccccc1NC(=O)COc1ccccc1	-1.8%[38.3 µM]	-3.0	-0.3	5.0	-5.4	-2.8
CCCC1Nc2ccc(C(=O)O)cc2C2C=CCC12 (stereo not drawn)	-1.7%	u	1.7	5.1	-4.6	u
CCOC(=O)c1c(NC(=O)c2ccccc2)sc2c1CCc1ccccc1-2	5.9%	-5.8	-0.1	-3.9	11.8	43.9
CN1C(=S)SC(N(O)C(=O)Nc2ccc(Cl)c(Cl)c2)C1(C)C (stereo not drawn)	u	-2.6	0.6	4.1	-3.1	3.5
Cc1ccc(-n2c(C)cc(C(=O)COC(=O)c3ccc[nH]c3=O)c2C)cc1C	0.4%	-10.8	2.0	0.5	2.5	0.8
Cc1nn(C(C)(C)C)c(NC(=O)c2ccc(Cl)cc2)c1Br	0.8%	0.4	1.4	-0.2	-16.8	5.6
Cc1ccc(NC(=O)c2cccs2)cc1NC(=O)c1cccnc1	-1.1%	76.9*	2.8	-1.1	x	2.3
Cc1c(/C=C/C(=O)c2ccc(Cl)s2)cnn1C	1.1%	-7.6	0.5	-0.6	3.0	-0.6
COc1ccc(NC(=O)c2cc(S(=O)(=O)N3CCCCC3)c[nH]2)c(OC)c1	0.4%	-5.8	-1.3	-2.8	-1.3	-10.3

Compound profiles, from the list above. Order of screens: PINK1 expr mod, D2 PAM, TRPML1 ag, D2 ag, CtBP-E1A inh, Six1-Eya2 inh
Entry for `Cc1ccc(C)c(OCC(=O)NCC(C)(C)N2CCOCC2)c1` : 3.4%, -3.5, 0.1, 0.5, -3.8, 1.0
Entry for `COCCn1nnnc1C(c1ccc(OC)cc1)N1CCN(C(=O)c2ccco2)CC1` (stereo not drawn) : 3.0%, -10.8, -1.4, -6.6, 0.0, 4.9
Entry for `Cc1nn(C(C)(C)C)c(NC(=O)c2ccc(Cl)cc2)c1Br` : 0.8%, 0.4, 1.4, -0.2, -16.8, 5.6
Entry for `CCCC1Nc2ccc(C(=O)O)cc2C2C=CCC12` (stereo not drawn) : -1.7%, u, 1.7, 5.1, -4.6, u

Structures above shown as hits in D2 PAM:
SMILES	PINK1 expr mod	D2 PAM	D2 ag	CtBP-E1A inh	Six1-Eya2 inh
Cc1ccc(NC(=O)c2cccs2)cc1NC(=O)c1cccnc1	-1.1%	76.9*	-1.1	x	2.3

(listing goes on)
SMILES	PINK1 expr mod	D2 PAM	TRPML1 ag	D2 ag	CtBP-E1A inh	Six1-Eya2 inh
CC(C)(C)NC(=O)Cn1c(SCC(=O)Nc2nccs2)nc2ccccc21	4.4%	3.9	1.7	-0.7	-9.8	-14.1
CCc1nn2cc(C(=O)c3cc(C)ccc3O)cnc2c1-c1ccc(F)cc1	7.3%	12.7	-0.1	5.3	8.1	1.2
Cc1ccc(S(=O)(=O)N2CCCC(C(=O)NNCC(=O)Nc3cc(F)ccc3F)C2)cc1 (stereo not drawn)	2.5%	-5.8	0.5	0.8	-16.6	-0.5
CC(C)Cc1ccc(C2=CSC3=NCCN23)cc1	-0.3%	-9.2	0.7	8.5	-10.8	-8.5
CCOc1ccc(/C=N/NC(=S)NC2CC3CC2C2C=CCC32)cc1 (stereo not drawn)	25.4%	-7.0	0.3	-2.5	-8.9	-14.2
Cc1c(C(=O)O)oc2ccc(S(=O)(=O)NCc3ccccc3)cc12	1.4%	-1.1	-0.1	-3.4	3.6	3.3
COc1cccc(-c2nnc(SCC(=O)NCc3ccc4c(c3)OCO4)n2Cc2ccco2)c1	-2.1%	-5.6	2.9	3.5	-4.3	-10.1
CN1CCS/C1=C/C=C1/SC(=S)N(Cc2ccccc2)C1=O	0.4%	-44.9	5.9	-6.9	-27.7	u
CC1(C)CC(=O)c2c(O)cc(O)cc2O1	1.7%[38.3 µM]	-9.4	-0.5	-0.2	3.0	-0.1
CCCc1nc2ccccc2c(=O)n1CC(=O)c1ccc(F)cc1	8.6%	-11.9	1.4	-3.3	x	3.4
O=C(NCCN1CCCCCC1)c1ccc(N2CCCC2=O)cc1	-2.0%	-7.5	-1.3	0.1	2.6	-0.2
O=C(O)C1CC=CCC1C(=O)Nc1ccccc1C(=O)N1CCN(c2ccc(F)cc2)CC1 (stereo not drawn)	0.9%	0.9	-0.4	-0.7	2.6	9.0
Cc1nn(C(C)C(=O)N2CCOCC2)c(=O)c2nn(-c3ccccc3)c(C)c12 (stereo not drawn)	1.2%	-7.6	0.4	-4.3	x	7.7
CCOC(=O)c1cc2c(n(-c3ccc(Cl)cc3)c1=O)CCCC2=O	2.8%	-20.4	-0.1	-2.4	8.4	30.6
Cc1[nH]nc(SCC(=O)N2CCCCC2)c1[N+](=O)[O-]	-1.4%	-2.6	-0.6	-4.2	-0.6	-2.8
Cc1nc(C(=O)N(C)C)nn1-c1ccc([N+](=O)[O-])cc1	1.2%	-4.1	0.7	2.2	8.7	8.0
CCn1cc(Br)c(C(=O)N2CCN(c3ccccc3)CC2)n1	1.8%[38.3 µM]	-10.4	-0.4	0.1	11.1	-1.6
CC(C)c1cccc(C(C)C)c1OC(=O)NC(=O)c1c(F)cccc1F	4.7%	-17.2	21.5	-3.4	-10.3	-0.9
N/C(=N\NS(=O)(=O)c1ccccc1C(F)(F)F)c1ccccn1	-1.2%	5.3	3.0	6.5	x	-5.7
COc1ccccc1N1CCN(C(=O)CCN2C(=O)c3cccc4cccc(c34)C2=O)CC1	14.7%	-8.6	-0.1	-0.9	-0.5	-1.4
C/C(=N\Nc1nnc2c3ccccc3n(C)c2n1)c1ccc(C)o1	6.0%	-2.7	-0.6	3.8	1.1	-28.6
COc1ccc(Cl)c(NC(=O)Cn2nnc(-c3ccccc3N)n2)c1	x	-6.6	0.6	2.8	7.0	-1.8
CCCNC(=O)c1cc(-c2ccccc2)c(N2CCCCC2)s1	12.0%	-1.4	-0.4	-3.6	x	-3.9
CCOC(=O)c1csc(NC(=O)C2CCCCC2)n1	-0.7%	-4.1	0.2	-5.8	2.3	4.7
COC(=O)CSc1nnc(-c2ccccn2)n1N	-0.5%	6.5	0.1	6.0	-7.3	u
CN(C)S(=O)(=O)c1cccc(NC(=O)c2n[nH]c(=O)c3ccccc23)c1	1.4%	0.1	-0.8	-0.8	-1.6	-8.3
COc1ccc(C(O)c2ncc(-c3ccccc3)[nH]2)cc1F (stereo not drawn)	-0.7%	-18.4	-0.3	-4.9	-4.3	-6.9
COc1ccc(CCNC(=O)c2cc(C(=O)c3cc(Cl)ccc3O)cn(CCc3ccc(OC)cc3)c2=O)cc1	4.1%	3.9	0.5	5.7	5.0	-0.4
